High-throughput results: PubChem, PCMD
Calb biofilm kill: clotrimazole potentiators killing C. albicans biofilm, primary screen, 4-compound mixtures; AID 1242, 2008; inhibition, % at 7.6 µM; C. albicans biofilm persisters + clotrimazole, fluorescence viability; primary screen in compound mixtures of four per well; actives 0.02% (n = 120,000);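 active means inhibition above 30.3% in the primary screen of four-compound pools, then above 30% when the compound was retested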;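 further: compounds exposed to preformed 24 h biofilms for 48 h; the number belongs to the whole pool; some results filed as inactive read as strong as hits; inactives centre near 12; 0% = biofilm with clotrimazole alone and 100% = kill control; retested singly at about 60 µM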
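Test system: C. albicans CAF4-2 wild-type biofilms; buffer or medium: RPMI/MOPS medium, pH 7.0; schedule: 24 h biofilm formation, then 48 h compound exposure, 37 °C; detection: Alamar Blue fluorescence; measure: percent inhibition of biofilm viability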
The depositor's hits bear a star; & = joins results of further samples. The list is partial, so the mix of outcomes need not match the whole.

Compound | Calb biofilm kill
O=C(O)c1ccc(S(=O)(=O)c2ccc3c(c2)C(=O)N(NC(=O)c2cccnc2)C3=O)cc1 | 15
O=C(Nc1ccc(-c2csnn2)cc1)C1CC1 | 15
CCOC(=O)c1c(C)nc2cc(C)cc(C)n12 | 9
CC(=O)NC(=S)Nc1ccc(S(=O)(=O)N2CCOCC2)cc1 | 10
O=C(Nc1ccc(F)cc1F)c1ccc(-n2cccn2)nc1 | 6
O=C(CCl)NC(Cc1ccccc1)c1ccccc1 (stereo unspecified) | 9
COC(CNC(=S)Nc1ccc([N+](=O)[O-])cc1)OC | 17
O=C(CCNC(=O)c1ccco1)Nc1ccc(SC(F)F)cc1 | 5
Cc1cccc(NC(=O)N2CCC(n3nnc4cc(C)ccc43)CC2)c1 | 4
CC(C)C(=O)Nc1nc(-c2ccccc2)ns1 | 11
O=C(NN1C(=O)C2C(C1=O)C1C=CC2C12CC2)c1cccnc1 (stereo unspecified) | 10
O=C1CSC(c2ccccc2F)N1c1ccccc1 (stereo unspecified) | -5
CCOC(=O)c1c(NC(=O)CSc2nc3ccccc3c(=O)n2-c2ccccc2)sc(C(C)=O)c1C | 8
CC(C)NS(=O)(=O)c1ccc(CCC(=O)N2CCC(C(N)=O)CC2)cc1 | 6
Cc1cccc(NC(=S)N2CCN(c3ccc(F)cc3)CC2)c1 | 7
COc1ccccc1-c1cn[nH]c1-c1ccc(OCc2ccccc2)cc1O | 15
O=C(c1ccc(F)c(S(=O)(=O)N2CCOCC2)c1)N(c1ccccc1)c1ccccn1 | 0
COc1ccccc1CNCC(=O)Nc1ccc(C(F)(F)F)cc1 | 13
CCN(CC)C(=O)CSc1nc(O)c(Cc2ccccc2)c(=O)n1-c1ccccc1C | 19
C=CCOC(=O)C1=C[C@@H](c2ccc(Br)cc2)C[C@@H](OCc2ccc(CO)cc2)O1 | 14
COc1ccc(C(=O)NC(=S)Nc2ccc(N3CCOCC3)c(Cl)c2)cc1[N+](=O)[O-] | -10
COc1cc(OC)nc(/N=C/NO)n1 | 21
COc1ccc(C(=O)NNC(=O)c2cc3cccc(OC)c3oc2=O)cc1 | 3
CC(C)C(=O)N1CCN(c2ccc(NC(=O)c3ccc([N+](=O)[O-])o3)cc2Cl)CC1 | 12
CC(C)CCNC(=O)C(c1cccnc1)N(CCc1ccccc1)C(=O)Cn1nnc2ccccc21 (stereo unspecified) | 16
CCCCCC(=O)N1CCCCC1 | 3
O=C(NCc1cccs1)C(=O)NCC(c1ccco1)N1CCN(c2ccccc2)CC1 (stereo unspecified) | 13
Cc1ccc2cc(/C=N/NC(=O)CN3CCCCC3)c(Cl)nc2c1 | 22
O=[N+]([O-])c1cccc(CNc2ccc3c(c2)CCC3)c1 | 13
Nc1[nH]n2c(=O)cc(-c3ccccc3)nc2c1N=Nc1ccc2c(c1)OCO2 | 6
CCOC(=O)c1ccc2nc(C)cc(Nc3cccc(C(=O)O)c3)c2c1 | 5
CCOC(=O)CSc1nnc(COc2cccc(C)c2)o1 | 12
CCNc1cc(N2CCOCC2)nc(SC)n1 | -4
COc1ccc(N(CC(=O)Nc2ccccc2C(N)=O)S(=O)(=O)c2ccc(C)c([N+](=O)[O-])c2)cc1 | 9
CC1=C(C(=O)N2CCN(c3cc(C)ccc3C)CC2)C2(CCCCC2)OC1=O | 10
Cc1ccc(S(=O)(=O)n2c3ccc(F)cc3c3nc(C)sc32)cc1 | 11
Cc1nnc(NC(=O)CSc2ncn(-c3ccccc3)n2)s1 | 14
CN(C(=O)CS(=O)(=O)c1cccc(Cl)c1)c1ccccc1 | 6
Cc1cc(N2CCN(C)CC2)nc2ccc(NC(=S)N3CCN(c4cccc(Cl)c4)CC3)cc12 | 11
COc1ccc2c(c1)c(=O)c(C(=O)c1ccccc1)cn2Cc1ccc(C)cc1 | 13
O=C(Nc1ccc(-c2csc(Nc3cccc(C(F)(F)F)c3)n2)cc1)c1cc([N+](=O)[O-])cc(C(F)(F)F)c1 | 17
N#C/C(=C\c1cn(Cc2ccccc2)c2ccccc12)C(=O)NCc1ccco1 | 15
Cc1cc(Cl)ccc1OCc1nnc2n1CCCCC2 | 11
COc1ccc(Cl)cc1NC(=O)COC(=O)CNC(=O)c1ccc([N+](=O)[O-])c(C)c1 | 11
Cc1ccc(-c2[nH]c(-c3ccc(C(=O)O)cc3)nc2-c2ccccc2)cc1 | 19
CC(C)N(C(=O)C(F)(F)F)C(C(=O)NC1CCCCC1)c1ccncc1 (stereo unspecified) | 17
O=C(Nc1cccc(Cl)c1N1CCCC1)c1ccc([N+](=O)[O-])o1 | 19
O=C(CSCc1ccccc1)N=Nc1c(O)[nH]c2ccccc12 | 20
Cc1ccc(S(=O)(=O)NN)c(C)c1N1CCCC1=O | 8
CC(C)c1ccc(OCC(=O)NC(Cc2c[nH]c3ccccc23)C(=O)O)cc1 (stereo unspecified) | 22

Next compounds.
Structure,Calb biofilm kill
O=[N+]([O-])c1cccc(S(=O)(=O)Nc2ccc(Cc3ccncc3)cc2)c1,23
COc1ccc(C(=O)NC(=S)Nc2ccccc2N2CCCCC2)cc1[N+](=O)[O-],14
COC(=O)C(CCSC)NC(=O)/C=C/c1ccc(OC)cc1 (stereo unspecified),18
O=C(Cn1cnc2c(cnn2-c2ccccc2)c1=O)Nc1ccc(S(=O)(=O)N2CCOCC2)cc1,13
CC(Sc1nnc(NC2CCCCC2)s1)C(=O)Nc1ccc2c(c1)C(=O)c1ccccc1C2=O (stereo unspecified),25
Nc1cc(S(=O)(=O)N2CCCCC2)ccc1Oc1ccc(Cl)cc1,20
CC(=O)c1c(C)[nH]c(C(=O)Nc2nc(-c3ccccc3)c(C)s2)c1C,2
Cc1ccc(NC(=S)N2CCN(C(=O)c3ccccc3)CC2)c(C)c1,12
COc1cc(C2C(C(=O)/C=C/c3ccccc3)=C(O)C(=O)N2c2ccccn2)ccc1O (stereo unspecified),7
O=C(O)C1CCN(c2ccc(Cl)nn2)CC1,23
Cc1ccc(-n2c(C)cc(/C=N\NC(=O)CC(=O)NC(C)C)c2C)cc1,11
CCOc1cccc(CN2CCCC(C(=O)c3cccc(C(F)(F)F)c3)C2)c1O (stereo unspecified),6
Cc1occc1C(=O)N/N=C/C=C/c1ccccc1,18
CC(C)(C)C(=O)N1CCN(c2ccc(Cl)cc2[N+](=O)[O-])CC1,7
Cc1ccc(NC(=O)c2ccc(Cl)nc2)cc1,10
CC(C)(C)[C@H]1C=C(C(=O)NCc2nc3ccccc3[nH]2)O[C@@H](OCCCCO)C1,3
CCc1ccc(-c2cc(C(=O)N/N=C/c3ccccn3)[nH]n2)cc1,7
O=C(CCCCCCCC(=O)NNC(=O)Nc1ccccc1)NNC(=O)Nc1ccccc1,8
Nc1nnc(-c2cc3c(ccc4ccccc43)oc2=O)s1,11
O=C(NCc1ccccc1)Nc1cccn(Cc2cccc(F)c2)c1=O,10
Cc1nnc(SCC(=O)N/N=C/c2ccc(-c3ccc(C)c(Cl)c3)o2)s1,12
Cc1ccc(N2CC(C(=O)Nc3ccc(S(=O)(=O)Nc4nccc(C)n4)cc3)CC2=O)cc1 (stereo unspecified),4
CCN(CC)c1ccc(NC(=O)CSc2nc3ccccc3c(=O)n2-c2cc(S(=O)(=O)N(C)C)ccc2C)cc1,-3
Cc1ccc(C(=O)C(=S)N2CCOCC2)cc1,19
COc1ccc(NC(=O)/C=C/c2ccc(Br)o2)cn1,10
O=C(c1cccnc1)N1CCC(Oc2ccc(C(=O)N3CCCC(O)C3)cc2)CC1 (stereo unspecified),-8
FC(F)(F)Oc1ccc(NC(=S)Nc2ccc(OC(F)(F)F)cc2)cc1,7
Cc1ccc(S(=O)(=O)NCCSCc2ccco2)cc1,10
Cc1cc(Cl)c(S(=O)(=O)N2CCN(c3ccccn3)CC2)cc1OCC(N)=O,15
COc1ccc(N(C(C)C(=O)N/N=C/c2ccc(OC)c(OC)c2)S(C)(=O)=O)cc1 (stereo unspecified),11
O=C(COc1ccc(C(=O)c2ccccc2)cc1)NCC1CCCCC1,6
CNS(=O)(=O)c1ccc(NC(=O)c2ccccn2)cc1,12
CCOC(=O)C1CN(C(C)(C)C)C(=O)C1=O (stereo unspecified),13
Cn1cc(CN(Cc2ccccn2)C[C@@H]2CCC(=O)N2)c(-c2ccccc2F)n1,-15
Nc1nc(SCC(=O)N2N=C(c3ccc(Cl)cc3)CC2c2ccco2)n[nH]1 (stereo unspecified),5
CC(C)(C)C(=O)Nc1ccccc1C(=O)N1CCCC1,14
COc1ccc(CCNC(=O)C(=O)NCCCN2CCOCC2)cc1,17
Cc1ccc(C(=O)NCc2ccc3c(c2)CCO3)cc1C,12
Cc1cccc(NC(=O)CNC(=O)COc2ccc(C(=O)c3ccc(F)cc3)cc2)c1C,11
COc1ccc(N=C2C(=Nc3ccc(OC)cc3)N(c3ccccc3)C(=S)N2C(=O)c2ccc(Cl)cc2)cc1,10
CCn1cc(Cl)c(C(=O)Nc2ccccc2C(N)=O)n1,17
CCS(=O)(=O)N1CCN=C1SCc1cccnc1,10
CC1CCCC(NC(=O)NC(=O)CCl)C1C (stereo unspecified),-17
COc1cc(NC(=S)N2CCCC(CO)C2)c(OC)cc1Cl (stereo unspecified),12
Cc1c(Cc2ccccc2)c(NCCN(C)C)n2c(nc3ccccc32)c1C#N,16
Cc1oc(C)c(S(=O)(=O)NCc2cccs2)c1C(=O)O,24
COc1ccc(/C=N/NC(=O)c2ccccc2)cc1OS(=O)(=O)c1ccccc1,7
CCOC(=O)c1cc(-c2ccc(OC)cc2)nn1-c1ccc(C(=O)O)cc1,22
CC(=O)NNC(=O)c1csc(-c2csc(C)n2)n1,21
Cc1noc(C(=O)NC2CCCCC2)c1Cl,15
O=C(CN(CC1CCCO1)C(=O)c1nsc(Cl)c1Cl)NC1CCCC1 (stereo unspecified),14
COc1ccc(C(=O)NCC(=O)Nc2cccc(S(=O)(=O)NCc3ccco3)c2)cc1OC,6
COc1ccc(/C=N/NC(=O)c2cccnc2)cc1COc1ccc([N+](=O)[O-])c(C)c1,16
CCCOC(=O)C[N+](C)(C)CCOC1CC2CCC1(C)C2(C)C (stereo unspecified),13
Cc1c(Cl)ccc2c(C(N)=O)cc(-c3ccccn3)nc12,12
COc1ccc2[nH]c3c(=O)n(Cc4ccncc4)cnc3c2c1,21
O=C(Nc1ccc(S(=O)(=O)NC2=NCCCCC2)cc1)c1ccc2ccccc2n1,1
CCCCCCNCc1c(F)cccc1Cl,12
NCCc1cnc[nH]1,1&20
COCC(C)NC(=O)c1ccccc1[N+](=O)[O-] (stereo unspecified),5

Next section:
Structure,Calb biofilm kill
O=C(NNC(=S)NCc1ccc(Cl)cc1)c1ccc2c(c1)OCO2,0
COc1ccc(-n2cc3c(-c4cccc(Br)c4)nnc(C)c3n2)cc1,8
O=S(=O)(Nc1cccc(CO)c1)c1cccs1,0
O=C(NCc1ccc(Cl)cc1)C(=O)NCC(c1ccco1)N1CCOCC1 (stereo unspecified),14
COc1ccc(-c2coc3cc4oc(=O)c5ccccc5c4cc23)cc1F,-4
O=C1c2ccc(Oc3ccc([N+](=O)[O-])cc3)cc2C(=O)N1c1ccncc1,13
Cc1ccc(-c2cc(C(F)(F)F)n3nc(C(=O)Nc4ccon4)cc3n2)cc1C,12
CCOc1ccc2nc(SCc3ccc(OC)cc3)sc2c1,12
CC(=O)Nc1ccc(NS(=O)(=O)c2ccccc2)cc1,12
COCC(=O)NC1CCN(S(=O)(=O)c2cccc(C(C)=O)c2)CC1,20
NC(=O)C1Cc2ccccc2CN1S(=O)(=O)c1cccs1 (stereo unspecified),7
COc1ccc(S(=O)(=O)NCC(=O)Nc2cccc(C)c2C)cc1OC,16
C=C(C)Cn1c(C)cc(C)c(S(=O)(=O)c2cccc(C)c2)c1=O,7
Cc1ccc2sc(NNC(=O)c3cc(-c4cccs4)nc4ccccc34)nc2c1C,0
O=C(/C=C/c1ccc([N+](=O)[O-])cc1)NCc1ccccn1,10
Cc1cccc(-n2[nH]c(C)c(C=Nc3ccc4[nH]c(=O)[nH]c4c3)c2=O)c1,20
COc1cc(CCC(=O)Nc2ccc(Cl)c(C(F)(F)F)c2)cc(OC)c1OC,12
O=C(O)COc1ccc(Nc2ccccc2)cc1,16
CCOC(=O)COc1c(-c2ccc(OC)cc2)oc2ccccc2c1=O,12
CC(C)NCCCCOc1ccccc1-c1ccccc1,15
COc1ccc(OC)c(/C=N/NC(=O)CCc2c(C)n[nH]c2C)c1,8
Cc1ccc(C)c(S(=O)(=O)N/N=C/c2ccc(C(=O)O)cc2)c1,18
CCOc1ccc(NC(=O)C(=O)N/N=C/c2ccccc2F)cc1,2
